Screening results (PubChem)
RE007 growth inh: less growth of the S. pombe RE007 Vpr strain; S. pombe RE007 Vpr strain, BacTiter-Glo ATP luminescence, 24 h; control for the full effect not named in the record; Potency, µM (top dose mostly 92.2 µM), for the others: at the highest dose activity change, negative = less growth; 360,000 tested, 0.21% active; AID 651644; active = well fitted falling curve with a large enough effect; inconclusive = small, poorly fitted or top-dose-only effect; inactive = no such curve, though single readings can be large or run the other way;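 note: % is set by controls: 0 for no effect and ±100 for the full control effect; nearly all actives have a fitted effect of over 50% in size; the assay follows cell death caused by Vpr and the record does not say whether a fall means rescue or toxicity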
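Fission yeast strain RE007, carrying one chromosomally integrated HIV-1 vpr copy, was seeded at OD 0.01 in PMG+AL medium with 23 nL pinned compound. After 24 h at 30 °C and 99% humidity, viability was read by BacTiter-Glo luminescence.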
Cruzain inh noDet: inhibitors of Trypanosoma cruzi cruzain without detergent; P25779; AID 1476; 200,000 tested, 2.3% active; purified cruzain, Z-FR-AMC fluorescence, no detergent; Potency, µM, inactives show max response, negative = inhibition, hits mostly inhibitors;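 note: plate controls were enzyme without inhibitor for no effect and buffer without enzyme for full effect; nearly all actives have a fitted effect of over 40% in size; top concentration of the series not given in the record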
Target sequence (P25779 123-467 limits assumed): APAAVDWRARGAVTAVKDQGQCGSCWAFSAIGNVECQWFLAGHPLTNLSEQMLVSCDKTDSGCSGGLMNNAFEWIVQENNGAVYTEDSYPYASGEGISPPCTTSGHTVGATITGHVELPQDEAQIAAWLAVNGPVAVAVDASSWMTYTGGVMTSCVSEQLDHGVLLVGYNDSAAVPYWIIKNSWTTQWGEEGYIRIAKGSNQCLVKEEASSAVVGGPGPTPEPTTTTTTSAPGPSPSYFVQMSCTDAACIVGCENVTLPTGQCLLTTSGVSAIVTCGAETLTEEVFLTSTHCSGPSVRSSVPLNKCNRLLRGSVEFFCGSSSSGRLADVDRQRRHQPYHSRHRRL
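Purified cruzain at 1.5 nM, pre-incubated 15 min with compound at room temperature in 100 mM sodium acetate pH 5.5, 5 mM DTT, 0.00005% Triton X-100. Reaction started with 2 uM Z-FR-AMC; AMC fluorescence increase over 60 s gives rate.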
Cruzain Triton: cruzain (T. cruzi) inhibition with detergent | P25779 | purified cruzain, Z-FR-AMC fluorescence, 0.01% Triton | Potency, µM, inactives show max response, negative = inhibition, usual class: inhibitors | 200,000 tested, 0.43% active | AID 1478;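 note: plate controls were neutral wells for no effect and buffer without enzyme for full effect; nearly all actives have a fitted effect of over 40% in size; top concentration of the series not given in the record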
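Purified cruzain (1.5 nM final) was preincubated with compounds for 15 min at room temperature in 100 mM sodium acetate pH 5.5, 5 mM DTT, 0.01% Triton X-100. Reaction started with 2 uM Z-FR-AMC; AMC fluorescence change over 60 s gave activity.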
SARS PLP yeast: SARS-CoV PLP inhibition in yeast; 330,000 tested, 0.19% active; Potency, µM (top dose mostly 32.9 µM), without a hit: top-dose activity, positive = growth rescue; AID 485353; S. cerevisiae expressing SARS-CoV PLpro, growth rescue; control for the full effect not named in the record; active means well fitted rising curve with a large enough effect; inconclusive means small, poorly fitted or top-dose-only effect; inactive means no such curve, though single readings can be large or run the other way; note: 0% is about no effect; nearly all actives have a fitted effect of over 55% in size; growth read by luminescence after 48 h
LASV entry inh: inhibitors of Lassa virus binding or cell entry; Lassa virus pseudotype entry inhibition, cell reporter; control for the full effect not named in the record; 300,000 tested, 1.2% active; Potency, µM (top dose mostly 37.9 µM), without a hit: at the highest dose activity change, negative = inhibition, usual class: inhibitors; AID 540256; active means well fitted inhibition curve with a large enough effect; inconclusive means small, poorly fitted or top-dose-only effect, or effect the other way; inactive means flat fitted curve, though single readings scatter; tested in HEK293 cells; note: % is set by controls: 0 for no effect and ±100 for the full control effect; nearly all actives have a fitted effect of over 50% in size; luciferase read-out
Marburg entry inh: Marburg virus entry inhibition; Marburg virus pseudotyped entry inhibition, cell reporter; control for the full effect not named in the record; about a third of the inactives were read at about 46 µM; Potency, µM (series often up to 37.8 µM), without a hit: at the highest dose activity change, negative = inhibition, actives largely listed as inhibitors; 300,000 tested, 1.8% active; AID 540276; active = well fitted inhibition curve with a large enough effect; inconclusive = small, poorly fitted or top-dose-only effect, or effect the other way; inactive = flat fitted curve, though single readings scatter; tested in HEK293 cells; about a fifth of its hits are not listed in these tables; note: % is set by controls: 0 for no effect and ±100 for the full control effect; luciferase read-out
NS1 function inh: inhibitors of influenza NS1 protein function | S. cerevisiae slowed by influenza A NS1, growth recovery by OD600 | Potency, µM (series often up to 46.1 µM), without a hit: top-dose activity, positive = more growth | 270,000 tested, 0.4% active | AID 2326; active means well fitted rising curve with a large enough effect; inconclusive means small, poorly fitted or top-dose-only effect; inactive means no such curve, though single readings can be large or run the other way; note: nearly all actives have a fitted effect of over 50% in size
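In this qHTS, NS1 from influenza A is expressed in budding yeast, where it slows growth. Cells are switched from glucose to 2% galactose medium (pH 6.0, -URA), treated with compound, and growth recovery is read at OD600.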
StopGo reporter: lowers the luciferase signal of an FMDV 2A StopGo reporter | human cells with a luciferase reporter of 2A StopGo recoding; control for the full effect not named in the record | Potency, µM (doses to about 57.9 µM), for inactives: at the highest dose signal change, negative = less light | 410,000 tested, 1.2% active | AID 1159524; active = well fitted falling curve with a large enough effect; inconclusive = small, poorly fitted or top-dose-only effect; inactive = no such curve, though single readings can be large or run the other way; tested in HEK293T cells; note: % is set by controls: 0 for no effect and ±100 for the full control effect; nearly all actives have a fitted effect of over 45% in size; luciferase light after 4 h
* marks the source's active call; other numbers are inactive results; ? = inconclusive; / = no result given; & = joins results of further samples; [ ] = another dose, or the depositor's remark. Unless noted, calls come from the whole dose curve; as a rule, active = well fitted curve in the direction sought with a large enough effect; inconclusive = small, poorly fitted or top-dose-only effect, or another doubt; inactive = no such curve, though single readings can be large; an effect the other way counts as inactive or inconclusive. Potency is the fitted concentration of half-maximal effect.

The line under a structure holds: SARS PLP yeast	RE007 growth inh	Cruzain inh noDet	NS1 function inh	StopGo reporter	Marburg entry inh	LASV entry inh	Cruzain Triton
- CC(=O)N1CCCc2cc(S(=O)(=O)N3CCCC(C(=O)NCc4ccc(C)cc4)C3)ccc21 (configuration not stated)
→ 5%	-16%	?	2%	?	/	?	-1.4%
- Cc1cc(N/N=C/c2ccc(O)cc2O)nc(N2CCOCC2)n1
→ 0%	-22%	/	1%	2%	?	-24%	/
- CC(=O)c1ccc(NC(=O)Nc2ccc(Cl)cc2)cc1
→ -3%	3%	-12%	-44%	/	?	?	-15%
- CC(=O)N1c2ccc(S(=O)(=O)N3CCC(C(=O)N4CCN(c5ccc(Cl)cc5)CC4)CC3)cc2CC1C (configuration not stated)
→ -8%	1%	/	19%	?	/	/	/
- O=C(CSc1nnc(-c2ccccc2NC(=O)c2ccccc2)o1)OC1CCCCC1
→ /	6%	/	/	-11%	14%	13%	/
- CCOC(=O)c1cnn(-c2ccc(C)cc2)c1N
→ 12%	5%	2%	0%	43%[activator]	?	-3%	2.5%
- COc1ccc(-c2cc(C(=O)Nc3cc(OC)c(OC)c(OC)c3)no2)cc1OC
→ ?	1%	?	-1%	4%	-8%	?	-2.5%
- Cc1cc(F)ccc1S(=O)(=O)N1CCC2(CC1)OCCN2S(=O)(=O)c1cccs1
→ -1%	21%	/	/	-8%	?	?	/
- CCCn1c(N)c(C(=O)CSc2nnc(C)n2Cc2ccccc2)c(=O)n(C)c1=O
→ 8%	-3%	-8%	-2%	-29%	-13%	-3%	3.5%
- O=C(OCC(=O)N1CCOCC1)c1cccc(F)c1
→ 5%	4%	/	3%	49%[activator]	0%[46.1 µM]	?	/
- O=C(CNC(=O)c1ccco1)N/N=C/c1cccs1
→ 0%	20%	/	1%	26%	9%	?	/
- O=C(Nc1ccc(Br)cc1)c1cccc(OC(=S)N2CCOCC2)c1
→ -4%	10%	/	2%	?	?	?	/
- COC(CNC(=O)c1ccc2c(c1)nc(C)n2-c1cccc(F)c1)OC
→ 23%	-8%	1%	-10%	-5%	-2%	0%	4.2%
- CCc1nn(CC(=O)NCCCN(C)C2CCCCC2)c(=O)c2cc3occc3n12
→ ?	-8%	/	4%	7%	-14%[46.1 µM]	?	/
- Cc1ccc(NC(=O)CCC(=O)NNC(=O)c2ccccc2[N+](=O)[O-])c(C)c1
→ -1%	10%	/	/	-6%	?	0%[46.1 µM]	/
- COC(=O)Cn1c(=NC(=O)c2sc3ccccc3c2Cl)sc2cc(S(N)(=O)=O)ccc21
→ 6%	22%	-18%	19%	-13%	22%	-19%	-4.6%
- CC(=O)c1c(O)ccc2c(-c3ccccc3)cc(=O)oc12
→ 12%	?	0%	-29%	-8%	?	6%	-9.5%
- CCC(C)c1ccc(NC(=S)N2CCN(c3ccccn3)CC2)cc1 (configuration not stated)
→ 16%	?	/	-36%	10%	/	/	/
- COc1cccc(C(=O)Nc2nc3ccccc3[nH]2)c1
→ -12%	?	-5%	-6%	-67%	?	?	-7.3%
- COc1ccc(CCNC(=O)CCCCn2c(=O)c3ccccc3n(Cc3ccccc3)c2=O)cc1OC
→ /	/	-1%	/	0%	5%[46.1 µM]	-12%[46.1 µM]	-1.9%
- Cc1cccc(CN2CCC(CNC(=O)C3CCCN(S(=O)(=O)c4cnc[nH]4)C3)CC2)c1 (configuration not stated)
→ 0%	-9%	-4%	5%	-22%	/	/	-5.8%
- CCOc1cc2[nH]c(=S)n(CCOC)c(=O)c2cc1OCC
→ 0%	-20%	-2%	-10%	-8%	-3%	-1%	6.6%
- CCN1CCCC1CNC(=O)CSCc1nc(-c2ccccc2C)oc1C (configuration not stated)
→ -2%	27%[3.69 µM]	-8%	-2%	35%[activator]	-28%	32%	3.8%
- CCn1c(CNC(=O)c2cccs2)nnc1SCC(=O)NCCc1ccccc1
→ 2%	7%	-2%	-1%	13%	0%&3%	9%	2.2%
- CCOC(=O)c1sc(-c2ccc(Br)cc2)cc1N
→ -8%	-15%	-2%	-10%	76%[activator]	?	68%[14.3 µM]	-5.6%
- Cn1c(=O)c2c(nc(NCCNC(=O)c3ccco3)n2Cc2ccc(F)cc2)n(C)c1=O
→ 1%	-7%	/	-3%	?	-8%[46.1 µM]	/	/
- O=C(O)CN1C(=O)SC(Nc2ccc(C(=O)O)cc2)C1=O (configuration not stated)
→ 5%	-20%	1%	0%	0%	13%	9%	2.9%
- Cc1ccc(NS(=O)(=O)c2ccc(NC(=O)c3cccs3)cc2)c(C)c1
→ -1%	-2%	7%	14%	-25%	?	?	-11%
- O=C1c2ccccc2C(=O)c2cc(S(=O)(=O)Nc3ccccc3)ccc21
→ 4%	-14%	-1%	-5%	-19%	4%	-2%	-10%
- Cc1ccc(N(C(=O)c2csnn2)C(C(=O)NC(C)(C)C)c2ccccn2)cc1 (configuration not stated)
→ -1%	-2%	/	-1%	-8%	1%[46.1 µM]	19%[46.1 µM]	/
- COc1ccc(Cl)cc1NC(=S)N1CCN(S(C)(=O)=O)CC1
→ 0%	-7%	/	1%	13%	/	/	/
- COc1ccccc1/C=N/n1c(C)nnc1-n1nc(C)cc1C
→ 3%	-3%	2%	-1%	/	-2%	5%	-8.9%
- COc1ccccc1C(=O)C1CCCN(C(=O)CSc2ccccn2)C1 (configuration not stated)
→ 1%	-2%	/	-4%	-3%	-14%	?	/
- O=C(O)c1ccccc1OCCOCCOc1ccccc1C(=O)O
→ 4%	-15%	1%	4%	-15%	-2%	9%	5.1%
- Cc1ccc(C2C(S(C)(=O)=O)=C(O)C(=O)N2c2ccccc2)cc1 (configuration not stated) (tested in a mixture with another compound)
→ 8%	6%	-6%	?	-17%	43%	6%	-1.4%
- Cc1ccc(C2=NN=C(NC(=O)CSc3nncn3C)SC2)cc1
→ -2%	-12%	/	6%	49%[activator]	11%	-9%	/
- O=C(COC(=O)c1ccc(NS(=O)(=O)c2cccs2)cc1O)Nc1ccc(F)cc1
→ -1%	7%	/	12%	-15%	-11%[46.1 µM]	26%	/
- COc1cccc(OCc2nc(-c3cccc([N+](=O)[O-])c3)no2)c1
→ -6%	-15%	/	/	-7%	5%[46.1 µM]	6%[46.1 µM]	/
- O=C(NCC(c1ccc(Cl)cc1)N1CCCCC1)c1ccccc1F (configuration not stated)
→ /	/	-2%	/	-17%	6%[46.1 µM]	4%[46.1 µM]	-1.7%
- CCC(=O)N1C(C(=O)N2CCCC2)CSC1c1ccc(OC)cc1 (configuration not stated)
→ 4%	8%	5%	1%	-16%	6%	1%	0.4%
- CCOc1ccc(NC(=O)CN(C)C(=O)c2cn(-c3ccc(F)cc3)nc2-c2cccc(OC)c2)cc1OCC
→ -22%	3%	/	/	-18%	?	?	/
- COc1cccc(/C=C2\SC(=S)NC2=O)c1OS(=O)(=O)c1ccc(NC(C)=O)cc1
→ -30%	-8%	1%	-3%	30%[activator]	1%	?	-9.3%
- Cc1ccc(NC(=O)C(=O)NCC2CCCN2S(=O)(=O)c2cccs2)cc1C (configuration not stated)
→ -1%	-21%	/	/	-9%	?	2%	/
- CC1CCc2cc(F)ccc2N1C(=O)c1ccncc1 (configuration not stated)
→ -3%	0%	8%	-5%	0%	?	0%	-3.1%
- COc1cc(NC(=O)COC(=O)CSc2ccccc2F)c(C)cc1[N+](=O)[O-]
→ 15%	16%	-10%	-46%	9%	-9%	-1%	-11%
- CCCc1nnc(NC(=O)CC(C)c2ccccc2)s1 (configuration not stated)
→ -4%	-3%	/	-25%	1%	4%	7%	/
- Cc1ccc(N=N/C(=C\O)C(=O)c2ccc(Cl)cc2)cc1
→ -10%	44%	/	/	?	?	?	/
- CC(C)c1cc(C(=O)OCC(=O)NC(=O)NCc2ccco2)c(O)c(C(C)C)c1
→ -1%	2%	/	/	?	?	?	/
- Cc1ccc(S(=O)(=O)NCC(=O)OCC(=O)NC2CCCCC2)cc1
→ 7%	-18%	/	/	-11%	-1%	6%	/
- O=C(c1ccc([N+](=O)[O-])o1)N1CCN(c2nc3ccc(F)cc3s2)CC1
→ 0%	-8%	/	/	?	7%[46.1 µM]	?	/

Further results:
The line under a structure holds: SARS PLP yeast	RE007 growth inh	Cruzain inh noDet	NS1 function inh	StopGo reporter	Marburg entry inh	LASV entry inh	Cruzain Triton
- COc1ccccc1C1/C(=C(/O)c2ccccc2)C(=O)C(=O)N1CC(C)C (configuration not stated)
→ 3%	2%	-4%	-4%	/	-12%	-7%	-1.6%
- COc1ccc(CNC(=O)CCC(=O)c2ccc(C)cc2)cc1OC
→ 7%	-6%	/	-1%	20%	/	/	/
- COC(=O)CCC(=O)OC1(C)C(=O)C=C2C=C(C3CC3)N(CCCCO)C=C2C1=O (configuration not stated)
→ -1%	-21%	/	1%	-7%	/	/	/
- COc1ccc(C(=O)CN2CCN(c3ncccn3)CC2)cc1
→ -4%	-12%	/	1%	-11%	20%[46.1 µM]	18%[46.1 µM]	/
- Cc1ccc(S(=O)(=O)N2CCN(C(=O)CC(C)n3nc(C)c(Cl)c3C)CC2)cc1 (configuration not stated)
→ 0%	3%	/	-13%	?	?	0%	/
